Screens as filed in PubChem BioAssay.
Six1-Eya2 inh: qHTS Assay for Inhibitors of the Six1/Eya2 Interaction; Homeobox protein SIX1 (Homo sapiens) + Protein phosphatase EYA2 (Homo sapiens), …; AlphaScreen GST-Six1/His-Eya2 binding, biochemical; active compounds read low; control for the full effect not named in the record; activity change, % (test concentration not listed); hit rate 0.56% among 360,000; AID 651725, 2012; in the data active = activity change below about -65%; inconclusive = about -30% to -65%; inactive = above about -30%; further: on the % scale 0 is the no-effect control and ±100 the full control effect
Target sequence (O00167 whole entry, looked up): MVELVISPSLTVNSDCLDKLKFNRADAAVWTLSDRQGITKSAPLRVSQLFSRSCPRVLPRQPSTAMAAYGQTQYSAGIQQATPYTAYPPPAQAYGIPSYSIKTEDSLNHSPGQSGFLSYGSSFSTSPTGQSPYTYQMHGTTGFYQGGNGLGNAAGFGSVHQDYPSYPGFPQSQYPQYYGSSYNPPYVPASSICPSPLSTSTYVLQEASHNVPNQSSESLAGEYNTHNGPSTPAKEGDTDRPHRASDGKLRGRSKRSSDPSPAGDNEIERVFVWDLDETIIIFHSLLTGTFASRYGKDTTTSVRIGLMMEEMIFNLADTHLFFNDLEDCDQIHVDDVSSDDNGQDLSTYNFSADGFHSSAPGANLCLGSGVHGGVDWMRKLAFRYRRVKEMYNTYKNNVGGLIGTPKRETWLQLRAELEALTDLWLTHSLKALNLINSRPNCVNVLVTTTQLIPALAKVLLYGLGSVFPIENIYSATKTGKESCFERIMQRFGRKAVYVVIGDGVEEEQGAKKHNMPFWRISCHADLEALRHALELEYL
Target sequence (Q15475 whole entry, looked up): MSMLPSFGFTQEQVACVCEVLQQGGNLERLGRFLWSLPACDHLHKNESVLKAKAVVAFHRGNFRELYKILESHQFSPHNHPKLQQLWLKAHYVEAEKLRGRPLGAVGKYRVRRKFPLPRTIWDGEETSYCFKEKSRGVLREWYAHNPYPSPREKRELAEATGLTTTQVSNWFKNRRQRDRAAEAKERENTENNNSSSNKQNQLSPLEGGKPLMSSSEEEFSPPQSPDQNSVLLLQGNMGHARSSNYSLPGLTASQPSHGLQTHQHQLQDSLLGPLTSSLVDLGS
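AlphaScreen luminescence read after one hour at 37 °C in darkness. Pin-transferred compounds met GST-Six1 and His-Eya2 protein (5X stock 250 nM/500 nM) plus glutathione donor and Ni-chelate acceptor beads (5X, 50 ug/mL).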
CtBP-E1A inh: qHTS Assay for Inhibitors of the CtBP/E1A Interaction; hit rate 0.49% among 340,000; activity change, % (concentration not given with the values); AID 651724, 2012; AlphaScreen GST-E1A/His-CtBP binding, 1536-well; active compounds read low; control for the full effect not named in the record; in the data active means activity change below about -65%; inconclusive means about -30% to -65%; inactive means above about -30%; further: on the % scale 0 is the no-effect control and ±100 the full control effect
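GST-E1A and His-tagged CtBP (125 nM each as 5X stock) were preincubated with pin-transferred compound for 2 h at 37 °C in the dark, then glutathione donor and nickel acceptor beads were added for 1 h before AlphaScreen reading.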
TRPV1 PAM: HTS Assay for Compounds that Act as Potentiators of the Vanilloid Receptor 1 | Transient receptor potential cation channel subfamily V member 1 (Homo sapiens), Q8NER1 | potentiation, % at 8.33 µM | hit rate 0.02% among 320,000 | TRPV1-expressing cells, Fluo-8 calcium influx, capsaicin EC20 potentiation; host cell line not named in the record; control for the full effect not named in the record; active means potentiation above 80%; inconclusive means 30% to 80%; inactive means below 30%; further: 0% is about no effect
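Fluo-8 calcium influx in TRPV1-expressing cells, kinetic read (ex 480/em 520 nm). Compound added and read 3 min for agonist activity, followed by capsaicin at EC20 final and 2 min further read for enhancement.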
PINK1 modulator: A Quantitative High throughput Screen to Identify Chemical Modulators of PINK1 Expression. PINK1 immunofluorescence, high-content cytometry, 24 h. AID 624263, 2012. hit rate 0.2% among 410,000. Potency, µM (titrated, usually from 76.6 µM), without a hit: at the top dose activation (PINK1 increase), hits mostly activators; active = well fitted activation curve with a large enough effect; inconclusive = small, poorly fitted or top-dose-only effect; inactive = flat fitted curve, though single readings scatter; cell line not stated here;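 further: potency means the concentration at half of the fitted maximal effect; % of control where 0% means no effect; nearly all actives have a fitted effect of over 65% in size; a mitochondrial uncoupler was the plate control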
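PINK1 protein level read as immunofluorescence by microplate cytometer in a fixed, stained stable cell line after 24 h exposure to five compound concentrations, with CCCP as control.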
D2 agonist: Beta-Arrestin HTS for Positive Allosteric Modulators of the Human D2 Dopamine Receptor: Agonists | D(2) dopamine receptor (Homo sapiens), P14416 | activation, % (test concentration not listed) | hit rate 0.084% among 360,000 | DiscoveRx PathHunter D2 beta-arrestin, luminescence, 90 min; 100% = 57 uM dopamine signal; in the data active = activation above about 40%; inconclusive = about 15% to 40%; inactive = below about 15%; further: compound concentration not given in the record; the text of the record calls up to 30% inactive
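DiscoveRx PathHunter D2 beta-arrestin cells (2,100/well) attached overnight, then compound-stimulated 90 min at 37 C in HBSS/10 mM HEPES/0.1% Tween-20 buffer; beta-galactosidase complementation read by luminescence after 1 h at ambient temperature. Dopamine 57 uM final (EC100) as control.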
Sfp PPTase inh: qHTS Assay for Inhibitors of Bacillus subtilis Sfp phosphopantetheinyl transferase (PPTase); Biochemical Sfp PPTase activity, qHTS; 4'-phosphopantetheinyl transferase ffp (Bacillus subtilis), Q9F4F7; hit rate 3.5% among 310,000; Potency, µM, for the others: max response, negative = inhibition, hits mostly inhibitors; AID 1490, 2009; active means well fitted inhibition curve with a large enough effect; inconclusive means small, poorly fitted or top-dose-only effect, or another doubt; inactive means no such curve, though single readings can be large or run the other way;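 further: the enzyme is Sfp with the accession as filed and its product quenches rhodamine fluorescence; potency means the concentration at half of the fitted maximal effect; 0% = enzyme reaction without inhibitor and -100% = no enzyme wells; top concentration of the series not given in the record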
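With Hepes-Na pH 7.6 buffer containing 10 mM MgCl2, Sfp (15 nM) modified BHQ-2-YbbR (12.5 uM) using rhodamine-CoA (5 uM). Two reads 30 minutes apart at 525/598 nm yielded each well's rate.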
D2 potentiator: Beta-Arrestin HTS for Positive Allosteric Modulators of the Human D2 Dopamine Receptor: Potentiators; potentiation, % (test concentration not listed); hit rate 0.23% among 360,000; DiscoveRx D2 beta-arrestin cells, luminescence, 90 min; 100% = 57 uM dopamine signal; AID 624464, 2012; active = potentiation of 50% or more; inconclusive = 30% to 50%; inactive = 30% or less;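 further: compound concentration not given in the record; tested on top of an EC20 dose of dopamine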
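D2 cells co-treated with compound plus 50 nM dopamine (EC20) for 90 min at 37 deg C to detect potentiation. Beta-arrestin recruitment was read as enzyme-fragment luminescence after 1 h at ambient temperature. Full response was set by 57 uM dopamine.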
Active calls of the source: *; ? = inconclusive; / = not tested or not shown; [ ] = dose if it differs, or a comment.

canonical_smiles	Six1-Eya2 inh	CtBP-E1A inh	TRPV1 PAM	PINK1 modulator	D2 agonist	Sfp PPTase inh	D2 potentiator
CCCCOC(=O)c1ccc(NC(=S)NC(=O)c2c(Cl)cnn2CC)cc1	5	0	0	0.3%	-3.1	45µM*	-16
Cc1cc(C)cc(OCC(=O)Nc2ccc(F)cc2)c1	1	6	-22	-3.0%[38.3 µM]	-1.6	-21%	-6
Cc1cc(SCc2ccc(Cl)c(Cl)c2)nc(=O)[nH]1	-3	/	6	2.4%	-2.7	4%	-10
C=CCSc1n[nH]c(-c2ccc(OC)cc2)n1	3	4	?	0.5%[38.3 µM]	0.0	12%	-2
CCNC(=O)NC(=O)C(C)OC(=O)C1CCN(S(=O)(=O)c2ccccc2F)CC1 (stereo not given)	14	2	0	-1.4%	-3.1	10%	-13
Cc1cccc(CC(=O)NC2CCN(C)CC2)c1	2	/	7	0.1%	-3.3	8%	1
CC1(NC(=O)/C=C/c2nc3ccccc3s2)CCS(=O)(=O)C1 (stereo not given)	-8	/	18	1.4%	-3.3	/	-2
O=C(NCCc1ccccc1)c1nnc(CS(=O)(=O)c2ccccc2)o1	-1	6	-3	2.5%	-8.5	25%	-3
Cc1cc(C)c2oc(-c3ccc(C)c(NC(=S)NC(=O)c4cccs4)c3)nc2c1	-1	11	-6	11%	-0.2	-10%	-1
Cc1cc(C(=O)N/N=C/c2ccco2)n[nH]1	3	7	9	-0.3%	-20	-9%	-8
CC(C)Cn1c(SCC(=O)N2CCN(C(=O)c3ccco3)CC2)nc2ccccc2c1=O	1	5	-19	0.0%	-6.3	16%	-3
COC(=O)C(C)Sc1nc2c(c(=O)n(C)c(=O)n2C)n1CCC(C)C (stereo not given)	-7	3	-17	3.1%	-1.4	-14%	-4
C=C1c2ccccc2NC(=O)N1c1ccc(OC)cc1	6	/	8	-0.5%	-2.8	-3%	-11
CCOc1ccc(N(C)S(=O)(=O)c2cnc[nH]2)cc1	9	/	2	0.9%	1.4	5%	-4
COc1ccc(C(C(=O)NC(C)(C)C)N(C(=O)CCC(=O)Nc2cc(C)on2)c2cccc(C)c2C)cc1 (stereo not given)	16	3	-1	3.3%	-3.0	17%	2
C=CCNC(=S)Nc1ccc(N(C)C)cc1	9	16	-3	1.0%	0.4	10%	11
COc1ccc(-c2nnc(N(C)C(=O)c3cccnc3)s2)cc1	6	5	6	-0.5%	-2.5	18%	3
Cn1c2ccccc2c2ncn(CCC3=CCCCC3)c(=O)c21	-2	-2	-12	-2.6%	-0.4	-6%	-2
C[C@H](CO)N1C[C@H](C)[C@H](CN(C)C(=O)c2ccccc2)Oc2cc(Br)ccc2S1(=O)=O	1	5	/	1.2%	-3.8	/	4
O=C(Nc1ccc(Br)cc1)c1cc([N+](=O)[O-])cc([N+](=O)[O-])c1	-9	0	-1	?	?	-14%	6
CCOc1ccc(NC(=O)CSc2nnc(C3CC3)n2N)cc1	3	17	2	3.9%[38.3 µM]	-5.1	6%	-6
COc1ccc(C2CC(=O)c3c(ccc4ccccc34)N2)cc1OC (stereo not given)	-9	-3	-29	2.5%	-0.6	-2%	-10
CN(C)CCCn1cnc2c1c(=O)[nH]c(=O)n2Cc1ccccc1	-1	-20	-3	1.0%	-7.7	1%	-6
Cc1ccc(C(=O)CSc2nnnn2C(C)C)c(C)c1	9	9	-15	0.9%	-1.4	2%	-6
CCCCN1C2=NCCCN2c2ccccc21	5	1	-18	-1.5%[38.3 µM]	-4.0	3%	-13

Going on with the list:
canonical_smiles	Six1-Eya2 inh	CtBP-E1A inh	TRPV1 PAM	PINK1 modulator	D2 agonist	Sfp PPTase inh	D2 potentiator
Cc1ccccc1NC(=O)CSC1=NCCN1	13	4	-2	-2.7%	0.5	-22%	13
Cc1ccc(N2CC(C(=O)N3CCC(C(=O)Nc4nnc(C(C)C)s4)CC3)CC2=O)cc1 (stereo not given)	-1	-2	0	-0.1%	-2.0	-14%	-2
CCc1noc(C)c1C(=O)OCC(=O)NCCc1ccc(OC)cc1	-2	-16	5	-1.6%	-3.8	/	-5
O=C1CCCN1CN(C(=O)c1ccc2c(c1)OCO2)c1cccc(Cl)c1	-2	2	-12	/	-3.2	14%	-32
c1ccc(NN(Cc2cnccn2)c2ccccc2)cc1	-7	0	/	0.1%	1.6	/	-5
O=C(CSc1ncccc1C(=O)O)c1ccccc1F	2	0	-2	-0.2%	6.0	?	11
COc1cc2cc(CCCOC(=O)c3ccc(C#N)cc3)oc(=O)c2cc1OC	6	2	-4	-0.5%	1.9	/	-3
Cc1nc2ccc(NC(=O)COc3ccccc3F)cc2s1	27	-1	10	2.4%	-2.3	12%	-5
CC1CN(CCOc2ccc(Cl)cc2Cl)CC(C)O1 (stereo not given)	1	2	-7	0.8%	-0.1	-16%	-24
Cc1ccsc1CN(C)Cc1nc(C2CC2)no1	0	3	-4	7.0%	5.4	17%	0
CC(C)Nc1ccc(C(CC(N)=O)NC(=O)c2ccccc2)cc1[N+](=O)[O-] (stereo not given)	-2	-2	-6	2.7%	-3.5	-2%	-7
O=C(CSc1nnc(N2CCOCC2)n1-c1cccc(F)c1)N1CCN(c2ccccn2)CC1	2	4	0	0.1%	0.7	/	-15
Cn1c2ccccc2c2nnc(N/N=C/c3ccc(O)cc3)nc21	-16	-9	/	-1.1%	-1.0	/	-1
CC[C@@H]1Cc2[nH][nH]c(=O)c2[C@H](CC(C)C)O1	-2	6	/	1.0%	/	/	/
Cc1c(C(=O)N2CCC(C(N)=O)CC2)sc(N)c1C#N	-1	10	-20	3.7%[38.3 µM]	-1.1	10%	1
O=C(O)Cc1csc(NC(=O)CSc2nnnn2-c2ccc(O)cc2)n1	-2	/	-9	0.8%	1.8	-26%	5
CC1N(O)C(C)(C)C(c2ccccc2)=[N+]1[O-] (stereo not given)	0	-6	9	0.2%	2.0	5%	9
O=[N+]([O-])c1cccc(CN(CCO)Cc2ccccc2)c1	1	0	4	2.5%[38.3 µM]	-2.8	-27%	-12
O=S(=O)(N(Cc1ccccc1)[C@H](CO)Cc1ccccc1)N(Cc1ccccc1)[C@H](CO)Cc1ccccc1	-8	-8	/	2.6%	-1.2	/	-7
NC(=O)c1c(NC(=O)CN2CCN(S(=O)(=O)c3ccccc3)CC2)sc2c1CCC2	-2	-4	-5	0.2%	2.0	/	12
CC(=O)N(c1nc(CCl)cs1)c1ccc(C)cc1C	-8	/	10	2.2%	-4.4	-6%	-3
Cc1c(C)c2ccc(OS(C)(=O)=O)cc2oc1=O	0	-14	3	-0.6%	-0.1	-12%	-8
CC(NC(=O)Cc1ccccc1)c1cc2c(cc1Br)OCCCO2 (stereo not given)	9	5	-4	-0.9%	0.4	0%	5
CC1C(=O)O[C@@H]2C[C@@H](C)[C@@H]3CCC(=O)[C@@]3(C)[C@@H](O)[C@H]12 (stereo not given in full)	4	5	-6	1.3%	-3.9	3%	-10
CC1(C(=O)NCc2ccccc2)Cc2c(-c3ccccc3)ccnc2O1 (stereo not given)	20	0	/	5.1%	3.8	/	-3

Grouped by structure, the entries above with an NH in an aromatic ring (six)
canonical_smiles	Six1-Eya2 inh	CtBP-E1A inh	TRPV1 PAM	PINK1 modulator	D2 agonist	Sfp PPTase inh	D2 potentiator
Cc1cc(SCc2ccc(Cl)c(Cl)c2)nc(=O)[nH]1	-3	/	6	2.4%	-2.7	4%	-10
C=CCSc1n[nH]c(-c2ccc(OC)cc2)n1	3	4	?	0.5%[38.3 µM]	0.0	12%	-2
Cc1cc(C(=O)N/N=C/c2ccco2)n[nH]1	3	7	9	-0.3%	-20	-9%	-8
CCOc1ccc(N(C)S(=O)(=O)c2cnc[nH]2)cc1	9	/	2	0.9%	1.4	5%	-4
CN(C)CCCn1cnc2c1c(=O)[nH]c(=O)n2Cc1ccccc1	-1	-20	-3	1.0%	-7.7	1%	-6
CC[C@@H]1Cc2[nH][nH]c(=O)c2[C@H](CC(C)C)O1	-2	6	/	1.0%	/	/	/

Next part
canonical_smiles	Six1-Eya2 inh	CtBP-E1A inh	TRPV1 PAM	PINK1 modulator	D2 agonist	Sfp PPTase inh	D2 potentiator
CC1CCN(S(=O)(=O)c2cccc(C(=O)Nc3ccccn3)c2)CC1	-1	-1	-9	1.6%	1.2	-1%	4
CC1(C)CC(=O)C=C(NCc2ccccc2)C1	-8	-18	7	/	-0.7	25%	10
O=C(CCN1C(=O)S/C(=C/c2ccccc2)C1=O)Nc1ccc(C(=O)O)c(O)c1	-11	/	12	-1.3%	-1.9	6%	-1
O=C(CSc1nc2ccccc2o1)Nc1ccccc1	5	6	-17	8.4%[38.3 µM]	-2.6	10%	-5
CN(C)c1ccc(C(=O)NCC(c2cccs2)N2CCOCC2)cc1[N+](=O)[O-] (stereo not given)	-2	0	6	-1.4%	-2.6	/	-13
O=S(=O)(NCc1cccnc1)c1cccc2nsnc12	5	-1	3	7.1%[38.3 µM]	0.4	9%	9
COC(=O)c1cc(O)cc(OC)c1C(=O)c1c(O)cc(C)cc1O	0	-3	-11	0.3%	-4.1	17%	-9
COc1ccc(OC)c(S(=O)(=O)Nc2ccc(O)c3ccccc23)c1	-16	-26	0	1.3%	?	20µM*	89*
NS(=O)(=O)c1ccc(NC(=O)Cn2nc(C(=O)O)c3ccccc3c2=O)cc1	-12	-2	-2	-1.0%	-4.5	11%	-10
Cc1ccnn1-c1ccc(C(=O)N2CCCN(S(=O)(=O)c3ccc(F)cc3)CC2)cc1	23	/	-17	4.6%	-2.7	/	-4
Cc1cccnc1NC(=O)c1cccc(S(=O)(=O)N2CCN(c3ccccc3)CC2)c1	-10	-2	7	-2.7%	0.2	/	-14
Cc1nn(C)c(Cl)c1C(=O)NCC(=O)NCc1ccccc1	5	0	13	3.0%	-2.5	12%	2
